# ABCB6 inh 2: blocks the human ABCB6 transporter; Q9NP58; K562-ABCB6 porphyrin accumulation, flow cytometry, 1 h; hits give low values; fluorescence ratio to DMSO, % at 10 µM; 360,000 tested, 0.19% active; AID 602162;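 active = fluorescence ratio to DMSO below 75%, the collection mean minus 3 SD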;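 note: signal is porphyrin accumulated inside mitochondria; 100% equals median channel fluorescence of DMSO control wells; lower ratio means ABCB6 inhibition with less porphyrin fluorescence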
# PDI inh: blocks human protein disulfide isomerase activity. P07237. PDI insulin aggregation turbidity, A650, 90 min. inhibition, % at 10 µM. 350,000 tested, 0.052% active;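 active = mean inhibition across replicates of 30% or more, whatever share of single replicates reach that level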;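 note: absorbance from insulin aggregation driven by PDI reduction with DTT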
# Target sequence (P07237 whole entry, looked up): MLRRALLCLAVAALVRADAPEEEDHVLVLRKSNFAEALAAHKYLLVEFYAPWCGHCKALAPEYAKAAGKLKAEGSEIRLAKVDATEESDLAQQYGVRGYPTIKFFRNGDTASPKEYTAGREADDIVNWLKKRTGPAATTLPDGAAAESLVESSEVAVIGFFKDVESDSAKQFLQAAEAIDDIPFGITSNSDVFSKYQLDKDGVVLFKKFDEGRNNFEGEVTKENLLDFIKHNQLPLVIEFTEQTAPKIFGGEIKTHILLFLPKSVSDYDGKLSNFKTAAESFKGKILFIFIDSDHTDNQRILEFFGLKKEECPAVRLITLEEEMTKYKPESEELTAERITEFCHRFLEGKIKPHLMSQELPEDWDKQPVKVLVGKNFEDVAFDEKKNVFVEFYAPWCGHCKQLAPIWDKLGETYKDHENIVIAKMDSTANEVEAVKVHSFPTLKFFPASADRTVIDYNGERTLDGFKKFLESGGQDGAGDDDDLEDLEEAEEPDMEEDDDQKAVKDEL
# Cardio protect: modulators protecting cardiomyocytes from myocardial damage | H9c2 cardiomyocytes, H2O2 injury protection, ATPLite, 2 h | protection from H2O2 cell death, % at 20 µM | 360,000 tested, 0.63% active;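 active = compounds giving at least 50% protection of heart cells from peroxide-induced death in the single-dose screen, raw or plate-pattern-corrected value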;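 note: 0% = DMSO wells with peroxide and 100% = DMSO wells without peroxide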
# aDG glyco act: increases alpha dystroglycan glycosylation. Pro5-aDG cells, alpha-DG glycosylation AlphaScreen (IIH6); 0% Pro5, 100% B10-LARGE cell signal. activation, % at 10 µM. 360,000 tested, 0.22% active. AID 624168;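 active = activation of at least 8% versus controls, or a plate z-score of at least 8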;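 note: Pro5 are CHO cells carrying HIG-tagged alpha-DG that lacks glycosylation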
# Vif inh: HIV Vif inhibition; AID 602346; inhibition, % at 7.49 µM; HEK293T cells, Vif self-association by quenched fluorescence, imaging, 24 h; 340,000 tested, 0.35% active; in the data active = inhibition above about 50%, passing the limit was not always enough; note: some results filed as inactive read as strong as hits
# Granule exo inh: blocks lytic granule exocytosis. 360,000 tested, 0.66% active. TALL-104 LAMP-1 surface exposure, flow cytometry; cells stimulated with thapsigargin and PMA. inhibition, % at 10 µM;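 active = inhibition above about 55%, limit read from the data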
# CaV13 FRET inh: Disruptors of the CACNA1D IQ motif to Ca2+-dependent inactivation inhibitor domain association, primary screening, Förster resonance energy transfer in intact living …; HEK cells, CFP/YFP FRET ICDI-IQ, plate reader, 10 min; percent FRET-ratio fall versus neutral wells; inhibition, % at 12.3 µM; 340,000 tested, 0.098% active; AID 743397;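 active = mean replicate inhibition of at least 30% and at least 1% of replicates passing that level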;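 note: 0% = median of the neutral control wells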
# Starred values were filed as active, the others as inactive; . = no result given.
SMILES,ABCB6 inh 2,PDI inh,Cardio protect,aDG glyco act,Vif inh,Granule exo inh,CaV13 FRET inh
C[C@@]1([C@@H](NP(=O)(c2ccccc2)c2ccccc2)c2ccccc2)C[C@H]1CCO,96,-4,-2,0.5,.,14,-10
COC(=O)C1=C(c2cc3ccccc3o2)C[C@@H]2CC[C@H]1N2C(=O)N1CCOCC1,108,1,-8,-0.1,4,-6,-5
CCc1ccc(N2C(=O)NC(=O)/C(=C\C=C\c3ccco3)C2=O)cc1,98,4,6,0.2,.,76*,-4
CC1=CC(=O)OC2CC3OC4C[C@@H](C)C5OC6CC7O[C@]8(C)C/C=C\C9OC%10CC%11OC(CC(C)C%12OCCO%12)CC(O)[C@]%11(C)OC%10CC9OC8C[C@]7(C)O[C@]6(C)CCC5OC4C[C@]3(C)OC12 (some centres not stated),98,-6,-8,0.2,-19,-6,.
CCOc1ccccc1-n1c(O)c(C=Nc2ccc(N(CC)CC)cc2)c(=O)[nH]c1=O,137,-5,-9,-0.3,1,1,.
CC(C)[C@@]1(NC(=O)[C@@H]2C[C@@H]3c4cccc5[nH]cc(c45)C[C@H]3N(C)C2)O[C@@]2(O)[C@@H]3CCCN3C(=O)[C@H](Cc3ccccc3)N2C1=O,105,10,21,0.0,-3,13,-6
CCCN1CCC[C@H](c2cccc(O)c2)C1,97,6,2,-0.2,0,-4,-4
CC1=CC2OC3CC4OC(=O)C=CC=CC(C(C)O)OCC(O)C5(C)OC5C(=O)OCC2(CC1O)C4(C)C31CO1 (configuration not stated),96,6,-1,-0.2,-7,6,-6
Cc1ccc(N2C(=O)NC(=O)C(CCc3ccncc3)(Cc3cccc(Cl)c3Cl)C2=O)cc1 (configuration not stated),100,-9,2,0.1,8,0,-17
Cc1cccc2c(CCN)c[nH]c12,95,3,1,0.3,6,1,-6
Cn1c(O)c(C=NCCCC(=O)O)c(=O)n(C)c1=O,106,3,-5,-0.3,-3,0,-7
COc1ccc(CNCCc2c[nH]c3ccccc23)cc1OC,100,1,0,0.1,-4,22,-3
CCOC(=O)C1(CCc2ccccc2)CCN(Cc2ccco2)CC1,93,-12,1,0.1,1,2,-5
N=c1ccccn1Cc1ccccc1,94,3,0,-0.4,0,-2,5
CC1=CC2OC3CC4OC(=O)C=CC=CC(C(C)O)OCC(O)C(C)CC(=O)OCC2(CC1O)C4(C)C31CO1 (configuration not stated),91,-4,8,-0.3,8,-12,-6

# Quoted from above (10 entries):
SMILES,ABCB6 inh 2,PDI inh,Cardio protect,aDG glyco act,Vif inh,Granule exo inh,CaV13 FRET inh
CCc1ccc(N2C(=O)NC(=O)/C(=C\C=C\c3ccco3)C2=O)cc1,98,4,6,0.2,.,76*,-4
CC1=CC(=O)OC2CC3OC4C[C@@H](C)C5OC6CC7O[C@]8(C)C/C=C\C9OC%10CC%11OC(CC(C)C%12OCCO%12)CC(O)[C@]%11(C)OC%10CC9OC8C[C@]7(C)O[C@]6(C)CCC5OC4C[C@]3(C)OC12 (some centres not stated),98,-6,-8,0.2,-19,-6,.
CCOc1ccccc1-n1c(O)c(C=Nc2ccc(N(CC)CC)cc2)c(=O)[nH]c1=O,137,-5,-9,-0.3,1,1,.
CC(C)[C@@]1(NC(=O)[C@@H]2C[C@@H]3c4cccc5[nH]cc(c45)C[C@H]3N(C)C2)O[C@@]2(O)[C@@H]3CCCN3C(=O)[C@H](Cc3ccccc3)N2C1=O,105,10,21,0.0,-3,13,-6
CCCN1CCC[C@H](c2cccc(O)c2)C1,97,6,2,-0.2,0,-4,-4
CC1=CC2OC3CC4OC(=O)C=CC=CC(C(C)O)OCC(O)C5(C)OC5C(=O)OCC2(CC1O)C4(C)C31CO1 (configuration not stated),96,6,-1,-0.2,-7,6,-6
Cc1ccc(N2C(=O)NC(=O)C(CCc3ccncc3)(Cc3cccc(Cl)c3Cl)C2=O)cc1 (configuration not stated),100,-9,2,0.1,8,0,-17
Cc1cccc2c(CCN)c[nH]c12,95,3,1,0.3,6,1,-6
Cn1c(O)c(C=NCCCC(=O)O)c(=O)n(C)c1=O,106,3,-5,-0.3,-3,0,-7
COc1ccc(CNCCc2c[nH]c3ccccc23)cc1OC,100,1,0,0.1,-4,22,-3

# These rows are one share of the data, so the mix of outcomes need not match the whole.
